BJeLR viability: BJeLR cell viability loss | inhibition, % (no concentration beside the values) | AID 1554 | BJeLR (HRASV12) viability, CellTiter-Glo ATP luminescence, 48 h; reference of the scale not given here | 300,000 tested, 0.17% active;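 active = replicate mean above 50%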;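 note: 50 nL library stock added to about 25 µL; numbers are from one replicate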
PrP 5UTR inh: suppresses PrP 5' UTR mRNA reporter expression. 340,000 tested, 0.35% active. cell-based PrP 5' UTR mRNA reporter, plate reader. AID 488862. inhibition, % (concentration not given with the values);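 active = every replicate at 50% or more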;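 note: 0 = median of the neutral control wells; tested in H4 reporter cells; numbers are from one replicate; inactives centre near -14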
RN4220 kill: kills Staphylococcus aureus RN4220; 330,000 tested, 0.33% active; S. aureus RN4220 growth, OD600, 16 h; AID 1259311; inhibition, % (concentration not given with the values);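 active = z-score of -3 or lower and OD600 up to 0.18 on both plates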;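 note: plate controls were untreated cells for no effect and reference antibiotic for full effect; stock transfer was 100 nL into about 80 µL; one replicate is shown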
Bead autofluor: compound fluorescence in toxin protease inhibitor counterscreen; compound autofluorescence counterscreen, microsphere flow cytometry; active compounds read high; fluorescence intensity (concentration not given with the values); 360,000 tested, 3.1% active; AID 624483;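 active = at least 3 SD above the mean of all compounds, about 16000 in these data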;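 note: 100 nL of 1 mM stock went into each well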
ugtP null kill: compounds lethal to S. aureus RN4220 ugtP deletion mutant; OD600 growth, 16 h; some inactives read as strong as hits; AID 1259309; growth inhibition, % (test concentration not listed); 330,000 tested, 0.54% active;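 active = z-score under -3 and OD600 up to 0.15 on both plates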;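 note: plate controls were untreated wells for no effect and antibiotic for full effect; wells of about 80 µL received 100 nL stock; the first replicate is given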
Mtb hypoxia inh: reduces hypoxia-regulated biosensor signal in M. tuberculosis | M. tuberculosis hypoxia-regulated fluorescent reporter, fluorescence | fluorescence inhibition, % (concentration not given with the values) | 300,000 tested, 0.1% active | AID 1159583;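 active = 35 to 45% if threefold the growth effect, above 45% if 1.5-fold the growth effect; inactive = the rest, general growth blockers included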;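 note: wells of about 50 µL received 100 nL stock; 0% = vehicle wells and 100% = reference inhibitor wells; whole bacteria with a GFP reporter of the hypoxia response; strong numbers were not always called active; many hits fall short of the cut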
Mtb hypoxia inh growth: recorded beside Mtb hypoxia inh, whose call it bears; growth inhibition, %; measured here: M. tuberculosis growth (absorbance);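 0% = vehicle and 100% = reference antibiotic; read after six days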
The depositor's hits bear a star; . = no result given.

SMILES | BJeLR viability | PrP 5UTR inh | RN4220 kill | Bead autofluor | ugtP null kill | Mtb hypoxia inh | Mtb hypoxia inh growth
N#Cc1ccsc1NC(=O)CN1CCOCC1 | 5 | -20 | 2.7 | 3923 | 6 | 8 | -1
CCCc1nc(N)c(C#N)c(-c2cccnc2)c1CC | -3 | 7 | -0.9 | 4102 | -2 | 11 | 12
Nc1nc(-c2ccc3c(c2)NC(=O)CO3)cs1 | 5 | -15 | -9.3 | 3049 | 12 | 16 | 3
O=C(Nc1ccc(S(=O)(=O)N2CCCCC2)cc1)c1ccncc1 | 6 | -12 | 3.3 | 3194 | 1 | . | .
COc1cc(NC(=O)CSc2ncnc3c2cnn3Cc2ccccc2)cc(OC)c1 | 16 | -20 | -5.8 | 8781 | -8 | 0 | 0
Cc1ccc(C(=O)NCC(=O)OCC(=O)Nc2ncc(C(F)(F)F)cc2Cl)cc1 | 4 | -13 | 5.0 | 2123 | 9 | 7 | 4
C/C=C/CSc1nc2c(c(=O)[nH]c(=O)n2C)n1C(C)C | . | -63 | 3.6 | 5519 | 4 | 7 | 9
O=C(Cc1ccsc1)Nc1ccccc1F | 0 | -15 | . | 5608 | . | . | .
Cc1cc(C)nc(NC(=O)CN2C(=O)c3ccccc3S2(=O)=O)n1 | 10 | -4 | 3.5 | . | 6 | 4 | 11
CCC(C)N(C(=O)CSc1ncnc2sccc12)C1CCS(=O)(=O)C1 (configuration not stated) | . | -11 | 3.6 | . | 2 | -4 | -4
Cc1cc(C)c(S(=O)(=O)NCCn2ccc3ccccc32)c(C)c1 | -10 | -4 | -17 | 6489 | -11 | 15 | 14
Cn1c(CNC(=O)c2cccs2)n[nH]c1=S | -6 | -31 | -6.6 | 2155 | -1 | 0 | -4
CCCNC(=S)Nc1c(C)n(C)n(-c2ccccc2)c1=O | 1 | 3 | 2.0 | 3416 | -3 | 14 | -2
O=C(CCC(=O)Nc1ccc(Cl)cc1)NN=Cc1ccc2c(c1)OCO2 | . | . | -2.7 | . | -3 | -2 | 5
CCOc1ccc(NC(=O)CN(C)C(=O)c2ccc(C)c(S(=O)(=O)N3CCCCC3)c2)cc1OCC | 7 | -5 | 2.2 | 5644 | -1 | 3 | 3
CCN1CCN(C(=O)C2CCN(S(=O)(=O)N3CCC4(CC3)OCCO4)CC2)CC1 | -3 | 1 | 2.6 | 5215 | 3 | 2 | -1
Cc1cc(NC(=O)COC(=O)c2cccc(S(=O)(=O)N3CCOCC3)c2)no1 | -1 | -35 | 1.1 | 9680 | -4 | 1 | 1
CCc1ccccc1NC(=O)c1nnn(CC(=O)Nc2cccc(C)c2C)c1N | -7 | -36 | 1.0 | 4088 | 4 | . | .
COc1ccc(C(=O)N2CCCC(C(=O)N3CCCCCC3)C2)cc1 (configuration not stated) | 2 | -31 | -2.1 | 20377* | -3 | -3 | 5
CN(C)C(=O)COc1ccc(Oc2ccccc2)cc1 | -8 | 35 | 5.8 | 4219 | -2 | -2 | -2
Cc1ccc(S(=O)(=O)NCCC(=O)OCC(=O)N(C)c2ccccc2)cc1 | 3 | -13 | 2.1 | 6319 | 0 | 4 | 3
COc1ccc(S(=O)(=O)N(Cc2ccccc2)c2ccccc2C(=O)O)cc1 | 2 | -14 | 8.8 | 3696 | 8 | 19 | 5
O=C(COC(=O)CNC(=O)c1ccc(Cl)cc1Cl)NNC(=O)c1ccccc1F | . | -11 | -0.9 | 2886 | 6 | 14 | 7
CCOc1ccccc1CN1CCNC(=O)C1CC(=O)N(C)CCC1CCOCC1 (configuration not stated) | 0 | -12 | 4.8 | 5308 | -1 | 2 | 7
O=CN(c1ccccc1)c1ccc2ccccc2c1 | -1 | -6 | 15 | 4698 | 8 | 8 | 1
COc1ccc2nc(C)cc(SCC(=O)N/N=C/c3ccco3)c2c1 | 1 | -23 | . | 3712 | . | . | .
C=CCNC(=O)c1ccccc1CCc1ccccc1 | -9 | -25 | 8.4 | 3927 | 3 | 3 | 8
COc1ccc2nc(N3C(=O)/C(=C/c4ccccc4)NC3=S)sc2c1 | 5 | -4 | 0.3 | 9194 | 92* | 1 | 3
Cc1ccc(N2C(=S)N=C(Nc3ccccc3C)C23CCOC(C)(C)C3)cc1 (configuration not stated) | -9 | -1 | -3.1 | 10523 | 8 | -1 | 5
COc1ccc(N2CCN(C(=O)/C(C#N)=C/c3ccccc3)CC2)cc1 | 7 | -27 | 0.2 | 4566 | -6 | -5 | -3
COc1ccc(NC(=O)CN(C)C(=O)c2ccc(N3CCCC3)c([N+](=O)[O-])c2)cc1 | -4 | -21 | -0.2 | 5184 | 13 | 3 | 10
O=Cc1c(C(=O)O)n(Cc2ccc(F)cc2Cl)c2ccccc12 | 0 | -1 | -1.2 | 3749 | -14 | -10 | -13
COc1ccc(-c2cc(C(=O)N3CCCC(C(F)(F)F)C3)c3ccccc3n2)cc1OC (configuration not stated) | -11 | -1 | 1.0 | 5672 | 0 | 9 | 14
CC(=O)Nc1ccc(/C(C)=N/NC(=O)c2ccncc2)cc1 | -3 | -37 | . | 4032 | . | . | .
CN(CC(=O)Nc1ccc(C#N)cc1)Cc1ccc(Cl)cc1 | 6 | -8 | -3.0 | 4961 | 3 | 1 | -3
CCCC(=O)c1c[nH]c(C(=O)NCCCN2CCOCC2)c1 | -2 | 8 | -5.8 | 3599 | -10 | . | .
Cc1ccc2cccc(S(=O)(=O)Nc3ccc4c(c3)OCO4)c2n1 | -2 | . | 3.4 | 9601 | 5 | 8 | 8
CC1(C)CC(=O)C2=C(C1)OC(=O)C2(NC(=O)c1cccs1)C(F)(F)F (configuration not stated) | 1 | -7 | 3.6 | 3046 | 13 | . | .
CCOc1ccc(CN(C)C(=O)CCc2ccc(S(=O)(=O)N3CCCCCC3)cc2)cc1 | . | -5 | 8.0 | 2843 | 6 | 7 | -3
O=C(c1ccc(S(=O)(=O)NCc2ccco2)cc1)N1CCCC1 | 8 | -21 | 5.4 | 3446 | -6 | 11 | 3
Cc1cc(C)c2cc(CN(CCO)Cc3nnnn3Cc3ccc(F)cc3)c(=O)[nH]c2c1 | -1 | 0 | -11 | 2465 | -4 | -1 | 4
O=C(COC(=O)c1ccc2ncsc2c1)NCc1cccc(Cl)c1 | . | 3 | 3.6 | 6683 | 5 | 7 | 7
O=C(CSc1nc2cc(S(=O)(=O)N3CCOCC3)ccc2o1)Nc1c(F)cccc1F | -3 | -21 | 7.5 | 3335 | 12 | 1 | 5
Cn1c(=O)c2c(nc(SCC(=O)NCc3ccco3)n2C)n(C)c1=O | -6 | -18 | 3.2 | 9951 | 13 | 9 | 4
COc1ccc(N(CC(=O)Nc2ccc3c(c2)OCO3)S(=O)(=O)c2ccc(C)cc2)cc1OC | 4 | -26 | 4.1 | 4435 | 8 | 9 | 0
O=C(O)c1cccc(NS(=O)(=O)c2ccc3nnn(O)c3c2)c1 | -3 | 2 | -0.9 | 4744 | 0 | . | .
CC(C)(C)c1ccc(-c2nc(C#N)c(NCc3ccncc3)o2)cc1 | 3 | -26 | -0.2 | 8703 | -6 | 12 | 12
CCCCN1C(=O)C(=c2sc3nc(=O)c(-c4ccccc4)nn3c2=O)c2ccccc21 | . | . | 8.8 | . | 0 | 8 | 4
CCCCc1ccc(NC(=O)N[C@H](C(=O)O)C(C)C)cc1 | -1 | -24 | -12 | 2720 | -5 | 10 | 8
CC(C)(C)NC(=O)CSc1ncccc1-c1nc2ccccc2[nH]1 | 4 | -31 | 2.8 | 3176 | -3 | -1 | -1

(more compounds)
SMILES | BJeLR viability | PrP 5UTR inh | RN4220 kill | Bead autofluor | ugtP null kill | Mtb hypoxia inh | Mtb hypoxia inh growth
Cc1ccc(C(=O)N/C(=C\c2ccc(F)cc2)C(=O)NCCN2CCOCC2)cc1 | -4 | -18 | 2.7 | 5191 | 4 | -1 | -4
Cc1ccccc1NC(=O)c1ccccc1O | -1 | -23 | 2.9 | 22757* | -21 | 1 | 3
O=C1CC(SC(=NCc2ccc3c(c2)OCO3)Nc2ccccc2)C(=O)N1c1ccccc1 (configuration not stated) | 2 | 0 | . | 3039 | . | . | .
O=c1cc[nH]c2c1ccc1cccnc12 | 5 | -7 | -2.0 | 4020 | -2 | -8 | -3
CC(=O)c1c(O)cc(O)cc1CC(=O)O | 2 | -42 | 3.2 | 5630 | -11 | . | .
C#CCn1c(-c2ccccc2)ccc(C#N)c1=O | 3 | 6 | 6.6 | 2513 | 3 | 1 | 16
Cn1c(=O)n(CC(=O)NCc2cccnc2)c2ccccc21 | 0 | -9 | 4.7 | 24061* | 4 | 1 | 10
Cc1ccc(C)c(SCC(=O)OCC(=O)N2CC(C)OC(C)C2)c1 (configuration not stated) | 3 | -24 | 2.3 | 4885 | 3 | 12 | 2
COc1ccc(C(=O)NC(=O)N2CCCCC2)cc1 | -3 | 52 | 0.3 | 2318 | 1 | -5 | 0
COC(=O)c1sccc1NC(=O)Nc1cccc(C)c1C | . | -15 | 3.2 | 5677 | 9 | 9 | 8
CC(C)C(=O)N1CCN(c2nc(-c3ccc(Cl)cc3)cs2)CC1 | -7 | -12 | 3.5 | 2506 | 8 | 7 | 5
O=C(c1ccccc1)N1CCN(c2n[nH]c(=O)[nH]c2=O)CC1 | 3 | 8 | 3.3 | 3175 | 9 | 3 | 3
CCC(C)c1ccc(NC(=O)c2c([N+](=O)[O-])cnn2CC)cc1 (configuration not stated) | 3 | -18 | 6.9 | 3903 | 4 | 4 | -6
COC(=O)Cn1c(C)nc(=O)c(-c2ccccc2)c1C | 0 | -4 | -0.4 | 2481 | -3 | -2 | 3
c1ccc(-c2ccccc2OCCCN2CCCCCC2)cc1 | 6 | -8 | 6.1 | 2921 | 2 | 23 | 11
CCc1cc(=O)oc2cc(OCC(=O)NCc3ccccn3)ccc12 | 8 | -20 | 1.1 | 5504 | 7 | 7 | 9
Cc1cc(C)c(C(=O)Nc2ccc(S(=O)(=O)Nc3onc(C)c3C)cc2)c(C)c1 | . | 4 | -0.4 | 6162 | 2 | . | .
CC1SC(=NN=Cc2ccco2)N(Cc2ccccc2)C1=O (configuration not stated) | . | . | 0.9 | . | 10 | 5 | 6
Cc1ccc(C=Nn2c(-c3ccccn3)n[nH]c2=S)o1 | . | . | 4.4 | . | 3 | -1 | -5
Cc1cc(C(=O)OCC(=O)NCc2ccccc2)c2ccccc2n1 | . | -15 | 1.2 | 5922 | 3 | 1 | 1
Cc1cccc(N2CCN(CC(O)COCc3cccs3)CC2)c1C (configuration not stated) | -8 | -22 | 6.8 | 2084 | 8 | 18 | 11
Cc1ccccc1Nc1cc(=O)oc2ccccc12 | -2 | 6 | . | 3070 | . | . | .
NC(=O)c1c(NC(=O)c2ccc(F)cc2Cl)sc2c1CCC2 | 3 | -60 | 3.3 | 3662 | -10 | 12 | 14
O=C(CCCCCNC(=O)N1CCn2c1nc1ccccc12)NCc1ccc(Cl)cc1 | 7 | 3 | -1.9 | 5355 | 7 | 12 | 1
COc1ccc(CN2C(=O)c3cccnc3C2=O)cc1S(=O)(=O)N1CCCC(C)C1 (configuration not stated) | -9 | 3 | 5.0 | 4761 | 12 | 4 | 4
CCN(CC)CCCN=C(C)C1=C(O)c2ccccc2C1=O | -6 | . | 2.3 | 4456 | 2 | 18 | -1
COCc1[nH][nH]c(=O)c1C=NN1CCOCC1 | . | . | -2.1 | . | -15 | 6 | -11
Cc1cccc(C)c1OCC(O)CN1CCc2ccccc2C1 (configuration not stated) | -2 | -6 | 5.3 | 6074 | 6 | -16 | -4
O=C(O)c1cccc(-n2c(/C=C/c3ccccc3)nc3ccccc3c2=O)c1 | -1 | -6 | 97* | 3648 | 100* | -3 | -2
COc1ccc(Br)cc1C=NNC(=O)c1ccc(OC)c(OC)c1 | . | . | 0.6 | . | 15 | 1 | 6

Filtered by structure, the compounds so far with two or more sulfur atoms.
SMILES | BJeLR viability | PrP 5UTR inh | RN4220 kill | Bead autofluor | ugtP null kill | Mtb hypoxia inh | Mtb hypoxia inh growth
CCC(C)N(C(=O)CSc1ncnc2sccc12)C1CCS(=O)(=O)C1 (configuration not stated) | . | -11 | 3.6 | . | 2 | -4 | -4
Cn1c(CNC(=O)c2cccs2)n[nH]c1=S | -6 | -31 | -6.6 | 2155 | -1 | 0 | -4
COc1ccc2nc(N3C(=O)/C(=C/c4ccccc4)NC3=S)sc2c1 | 5 | -4 | 0.3 | 9194 | 92* | 1 | 3
O=C(CSc1nc2cc(S(=O)(=O)N3CCOCC3)ccc2o1)Nc1c(F)cccc1F | -3 | -21 | 7.5 | 3335 | 12 | 1 | 5

Screening data from PubChem BioAssay.
